Bioassay records: PubChem, ICCB-Longwood Screening Facility, Harvard Medical School
Vaccinia pol inh = vaccinia E9 polymerase processive synthesis inhibitors, primary screen, biochemical, absorbance; Vaccinia virus DNA polymerase (E9) processive complex; in vitro processive DNA synthesis, absorbance read-out; stronger effect = lower value; some inactives read as strong as hits; 46,000 compounds, 0.94% hits; normalized absorbance, % (no concentration beside the values);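 active = replicate mean up to 90% and picked by the depositor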;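 also: 100% = median of the test wells of a plate; 100 nL library stock went into each well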
Starred values were filed as active, the others as inactive; & = joins results of further samples. The list is partial. The share of hits here may be higher or lower than overall.

#	SMILES	Vaccinia pol inh
1	O=S(=O)(NC1CCCCC1Nc1ccccc1)c1ccccc1 (stereo unspecified)	101
2	C[N+](C)(C)CC(O)CC(=O)O (stereo unspecified)	101
3	Cc1cccc(N2C(=S)NC3c4cc(Cl)cc(Cl)c4OC2(C)C3C(=O)N(C)C)c1 (stereo unspecified)	95
4	Cc1ccc(Sc2ncccc2NC(=O)c2cccc3ccccc23)cc1	113
5	CC1=C(C(=O)Nc2ccccc2)C(c2ccccc2)NC(=O)N1 (stereo unspecified)	100
6	CC1CC(O)(CC(O)(c2ccccc2)c2ccccc2)C(C)CN1C (stereo unspecified)	96
7	CCOc1cc2c(cc1OCC)-n1cccc1C(C1CCCCC1)NC2 (stereo unspecified)	100
8	NC(N)=NCCNS(=O)(=O)c1cccc2cnccc12	100
9	CC1(C)CC(=O)C(c2c[nH]c3ccccc23)C(=O)C1	100
10	CNc1ccccc1C(C)(C)c1ccn[nH]1	101
11	COc1cc2c(cc1OC)C(=O)N(Cc1cccc(Cl)c1)CC2	103
12	O=C(Cc1c(F)cccc1Cl)NC(=O)NCCc1c(F)cccc1Cl	104

Continued:
#	SMILES	Vaccinia pol inh
13	Cc1ccc(NC(=O)c2cccc(N(C)C)c2)cc1NC(=O)c1ccc(O)cc1	98
14	CC(C)(C)C(=O)NCC(c1cccs1)N1CCOCC1 (stereo unspecified)	94
15	CC(=O)OC(C)(C)C#CCN1CCCC1	100
16	Cc1ccccc1N1CCNCC1	97
17	CNC(=O)NC(=O)CSc1nnc(Cc2ccccc2)n1-c1ccc(Cl)cc1	100
18	Cc1ccc(C(=O)OCC(=O)c2c[nH]c3ccccc23)cc1	100
19	COc1ccc(CN2CC(C(=O)N3CCn4c(nc5ccccc54)C3)CC2=O)cc1 (stereo unspecified)	97
20	O=C1Nc2ccc(Cl)cc2/C1=C/c1ccc2c(c1)OCO2	115
21	Cc1cc(-c2ccccc2)nc2oc3c(c12)NC(=O)CN(c1ccccc1)C3=O	100
22	CCC(C(=O)Nc1ccc(OC)c(OC)c1)n1c(C)c2cnn(-c3ccccc3)c(=O)c2c1C (stereo unspecified)	104
23	C=CCNC(=O)c1c(-c2ccccc2Cl)noc1C	84
24	COc1ccc(/C=C/C(O)=C2/C(=O)NC34CCCCC3C2c2ccccc2O4)c(OC)c1OC (stereo unspecified)	100

(listing goes on)
#	SMILES	Vaccinia pol inh
25	c1csc(-c2nc3cnccn3c2NC2CCCCC2)c1	99
26	O=C(/C=C/c1cccs1)Nc1ccc(Br)cn1	105
27	CNc1nc(-c2ccccc2)[n+](-c2ccccc2)s1	92
28	Cc1ccc(C(C)C)c(OCC(=O)/C=C2\Sc3ccccc3N2C)c1	100
29	c1ccc(-n2nnnc2-c2nc3ccccc3[nH]2)cc1	98
30	CC1CCN(C(=O)/C=C\c2ccccc2)CC1	100
31	C/C1=C/C(=O)O[C@@H]2C[C@@H](CC[C@H](C)/C=C\CC1)O[C@@](O)([C@@H]1CSC(=O)N1)C2	100
32	O=C(O)c1cc(C23CC4CC(CC(C4)C2)C3)nc2ccc(Br)cc12	100
33	COC(=O)CNc1c(-c2ccccc2)nc2ccccn12	97
34	CC1CCN(C(=O)CNC(=O)c2cccs2)CC1	118
35	N#CCc1nn2c(-c3ccccc3)ccnc2c1C#N	102
36	CC1=C/C(=C/c2ccco2)C(=O)O1	100

Other results:
#	SMILES	Vaccinia pol inh
37	COc1ccc(C(=O)Nn2c(C)nnc2-n2nc(C)cc2C)cc1OC	100
38	CCOC(=O)CSc1nc(C)c2cc(C)c(C)cc2n1	100
39	Nc1sc2c(c1C(=O)c1ccccc1)CCCC2	101
40	Cc1cc(Sc2ccc(Cl)cc2)nc(-c2ccccn2)n1	83
41	C=CCSC1=N/C(=C\c2ccccc2)C(=O)N1c1ccc(OC)cc1	97
42	O=S(=O)(NN1CCOCC1)c1ccc(Cl)s1	99
43	Fc1c(F)c(F)c(NC2=NCCCCC2)c(F)c1F	105
44	NC(=O)c1cc(N)cc(C(N)=O)c1	101
45	COc1cccc(C(=O)NCCSc2c[nH]c3ccccc23)c1	100
46	CCOC(=O)/C=C1\NC(c2ccccc2)=C(c2ccccc2)C1=O	113
47	O=C(NCC1CCCO1)c1cc(-c2ccc(Cl)s2)nc2ccccc12 (stereo unspecified)	109
48	O=C(CSC(=O)c1ccco1)Nc1cc(C(F)(F)F)cc(C(F)(F)F)c1	107

Following part:
#	SMILES	Vaccinia pol inh
49	CC[C@@]1(COC)C2[C@@H](OC)C[C@]3(OC(C)=O)C4C(C[C@](O)([C@@H](OC)C[C@@H]3O)[C@@H]4OC(=O)c3ccccc3)[C@]2(C(C)C)[C@@H](OC)C[C@H]1O (stereo partly specified)	100
50	Cc1nc2cc(-c3ccccc3)nn2c(C)c1CC(=O)N1CCCC1	88
51	O=C(O)c1ccccc1NS(=O)(=O)c1ccccc1	92
52	CCOC(=O)NN1CNc2ccccc2C1=O	100
53	c1ccc(CN=C2SC(=Nc3ccccc3)C3=C2CCCC3)cc1	104
54	COc1ccc(CNC2CCCCC2)cc1	92
55	O=C(CSc1ccc2nnc(-c3ccccc3)n2n1)N1CCCCC1	101
56	COC(=O)c1c(C(=O)OC)c(-c2ccccc2)n2c1CCC2	108
57	O=C(NC(=O)c1cnccc1C(F)(F)F)Nc1ccc(Cl)cc1Cl	107
58	CN1CCN(c2ccc(-c3ccno3)cc2)CC1	95
59	Cc1oc(-c2cccc(Cl)c2)nc1CN1CCCC(C(=O)NC2CCCc3ccccc32)C1 (stereo unspecified)	103
60	c1ccc2sc(Cc3cn4ccccc4n3)nc2c1	85

Among those listed so far, these have a thiophene ring, fused or not.
#	SMILES	Vaccinia pol inh
14	CC(C)(C)C(=O)NCC(c1cccs1)N1CCOCC1 (stereo unspecified)	94
25	c1csc(-c2nc3cnccn3c2NC2CCCCC2)c1	99
26	O=C(/C=C/c1cccs1)Nc1ccc(Br)cn1	105
34	CC1CCN(C(=O)CNC(=O)c2cccs2)CC1	118
39	Nc1sc2c(c1C(=O)c1ccccc1)CCCC2	101
42	O=S(=O)(NN1CCOCC1)c1ccc(Cl)s1	99
47	O=C(NCC1CCCO1)c1cc(-c2ccc(Cl)s2)nc2ccccc12 (stereo unspecified)	109

Additional structures:
#	SMILES	Vaccinia pol inh
61	CC(C)CC1CCCCC1OC(=O)C[N+]1(C)CCCCC1 (stereo unspecified)	100
62	CCN1CCN(C(=O)c2ccccc2F)CC1	90
63	O=C(Nc1ccccc1)C1CC=CCC1C(=O)OCC1CCCO1 (stereo unspecified)	97
64	O=C(NCCc1c[nH]c2ccccc12)c1ccccn1	107
65	Cc1cc(N2CCCC(C(=O)O)C2)n2cnnc2n1 (stereo unspecified)	104
66	CCOC(=O)CSc1nc2ccccc2o1	101
67	O=C(Nc1nn[nH]n1)C1CCCCC1	91
68	O=C(OCc1ccccc1)c1cnc(Sc2ccc(Cl)cc2)nc1C(F)(F)F	109
69	CCN(CC)S(=O)(=O)c1cc(C(=O)NC2CC2)ccc1Cl	105
70	CCSc1nc(SCC)c2c3c([nH]c2n1)CCCC3	100
71	CCC(SC1=Nc2ccccc2C2=NC(c3ccccc3)C(=O)N12)C(=O)Nc1cccc(OC)c1 (stereo unspecified)	101
72	CCN1CCN(C(=O)Cn2nc(C)c3sc4ccccc4c3c2=O)CC1	97

Continuation.
#	SMILES	Vaccinia pol inh
73	Cc1[nH]c2ccccc2c1-c1ccc(Cl)nn1	94
74	CC(=O)Oc1cc2sc(C)nc2c2sccc12	98
75	CCC(=O)c1cn(CC(=O)N2CCc3ccccc32)c2ccccc12	103
76	N#Cc1cn(CCCOc2ccccc2)c2ccccc12	102
77	COc1ccc(-c2cc(C(F)(F)F)nc(SCC(N)=O)n2)cc1	88
78	COc1ccc(C2C(C(=O)Nc3cnc4ccccc4c3)c3ccccc3C(=O)N2C)cc1 (stereo unspecified)	96
79	NC1=NC(=O)C(CC(=O)NCc2ccccc2)S1 (stereo unspecified)	90
80	O=C1CSC(c2ccccc2)N1c1ccccc1 (stereo unspecified)	93
81	Cc1ccc(NC(=S)C(C#N)C(=O)N2CCC(C)CC2)c(C)c1 (stereo unspecified)	100
82	CCOC(=O)C12CCC(C(N)=O)(CC1)CC2	95
83	CC1(C)CN(c2cccc(C(=O)c3cn(-c4ccc(C(F)(F)F)cc4)nn3)c2)C1=O	116
84	CC12CCCCC1N(CCC(N)=O)c1ccccc12 (stereo unspecified)	100

Next part:
#	SMILES	Vaccinia pol inh
85	O=C1CC(SC(=Nc2ccccc2)Nc2ccccc2)C(=O)N1CCc1ccccc1 (stereo unspecified)	102
86	COc1ccc(/C=C2/SC(=S)N(C)C2=O)cc1	100
87	CCOc1ccc2nc(C(=O)N3CCCC(C)C3)sc2c1 (stereo unspecified)	80
88	CC[n+]1c(C)sc2cc(SC)c(OC)cc21	92
89	O=C(CCCC1=NS(=O)(=O)c2ccccc2N1)OCc1ccc(Cl)cc1	113
90	NC(=O)c1c(NC(=O)c2cccc(Br)c2)sc2c1CCC2	98
91	O=c1[nH]c(/C=C2\C=Nc3ccc(Br)cc32)c(O)n1Cc1ccc(Br)cc1	100
92	CC1CCCC(C)N1C(=O)COC(=O)c1ccc(C(F)(F)F)cc1 (stereo unspecified)	90
93	Cc1cccc2c1N(C(=O)c1c(-c3c(Cl)cccc3Cl)noc1C)CCC2	101
94	CS(=O)(=O)/N=C(\N)c1ccccc1	100
95	CCOC(=O)N=S(N)(=O)c1ccc(Cl)cc1 (stereo unspecified)	104
96	COc1ccc(C2=N/C(=C/c3c(C)nn(-c4ccccc4)c3N3CCCCC3)C(=O)O2)cc1OC	100

The list goes on:
#	SMILES	Vaccinia pol inh
97	O=C(CNc1ccc(Cc2ccncc2)cc1)c1cccc2ccccc12	96
98	CCc1cc(=O)oc2cc(OCC(=O)N(CC)CC)c(Cl)cc12	99
99	NC(=O)c1c(NC(=S)NC(=O)c2ccccc2Cl)sc2c1CCCC2	100
100	Cc1ccc(-n2nc(-c3ccco3)cc2C(=O)O)cc1	96
101	CCc1ccc(NC(=O)c2ccc3c(c2)N(CC)CCS3)cc1	99
102	CCOC(=O)N1CCC(Nc2nc3ccccc3nc2NS(=O)(=O)c2ccc(Cl)cc2)CC1	99
103	Cc1cccc(NC(=O)c2cccc(Br)c2)n1	101
104	O=C1/C(=C/c2cccs2)SC(=S)N1CCCC(=O)N1c2ccccc2Sc2ccccc21	100
105	CC1CN(c2nc(-c3ccccc3)nc3ccccc23)CC(C)O1 (stereo unspecified)	99
106	CCOC(=O)CCc1c(C)nn(-c2ccc3nnc(C)n3n2)c1C	110
107	O=c1c2cc3ccccc3oc-2nn1-c1ccc(Cl)cc1	96
108	FC(F)(F)c1nc2ccccc2nc1-c1cccc(Cl)c1	100

Reprinted at random: 2 entries already listed.
#	SMILES	Vaccinia pol inh
97	O=C(CNc1ccc(Cc2ccncc2)cc1)c1cccc2ccccc12	96
106	CCOC(=O)CCc1c(C)nn(-c2ccc3nnc(C)n3n2)c1C	110

Remaining list, next part
#	SMILES	Vaccinia pol inh
109	O=C(CSc1cn(CCNC(=O)c2ccccc2)c2ccccc12)NCc1ccco1	100
110	CC(C)S(=O)(=O)c1csc(NC(=O)Nc2cc(C(F)(F)F)cc(C(F)(F)F)c2)c1Cl	103
111	CCn1c(C)[n+](CC)c2ccccc21	100
112	CCNC(=O)CC1Sc2ccc(C(F)(F)F)cc2NC1=O (stereo unspecified)	99
113	CCc1ccc(NC(=S)N(CCCN2CCCCC2)Cc2cccs2)cc1	104
114	COc1cccc(=O)c2c(C)n(C)c(C)c12	97
115	COc1ccccc1C1CCN(C(=O)c2ccco2)CC1	107
116	OC(CN1CCC(O)(c2ccc(Cl)cc2)CC1)C(F)(F)F (stereo unspecified)	95
117	CCCN1C(=O)/C(=C/c2ccc(C(C)C)cc2)SC1=S	98
118	CN(C)C=NC(=O)c1ccc(-c2cccs2)s1	80*
119	O=C(NCc1nnc(SC/C=C/c2ccccc2)o1)c1cccs1	99
120	CC(NC(=O)c1ccc(F)cc1Cl)C(c1cccs1)N1CCCC1 (stereo unspecified)	100

Later entries
#	SMILES	Vaccinia pol inh
121	CCSc1nnc(NC(=O)CC)s1	100
122	Cc1c(C(=O)N2CCC(C)CC2)sc2nc(-c3ccc(F)cc3)cn12	103
123	O=C1CCCc2c1n(CCN(Cc1ccccc1)Cc1ccccc1)c1ccc(Cl)cc21	100
124	O=C(OCc1nc2ccccc2s1)c1ccc(F)cc1F	106
125	COc1ccc(C(O)=C2C(=O)c3ccccc3C2=O)cc1	105&99
126	COc1ccc(-c2nc(SC)c(S(=O)(=O)c3ccc(C)cc3)[nH]2)cc1	100
127	CCOC(=O)/C(C#N)=C1/NC(=O)Nc2ccccc21	100
128	CC12CCC(CC1=O)C2(C)C (stereo unspecified)	100
129	Cc1ccc(C(=O)OCCOc2ccccc2F)cc1	102
130	c1ccc2c(c1)NC(c1ccncc1)n1c-2nc2ccccc21 (stereo unspecified)	101
131	COC(=O)NC(=Nc1c(C)cc(C)cc1C)C(F)(F)F	113
132	Cc1nc2sc(C(c3cccc(F)c3)N3CCC(O)CC3)c(O)n2n1 (stereo unspecified)	100

The list continues.
#	SMILES	Vaccinia pol inh
133	O=C(NN1S(=O)(=O)c2ccccc2S1(=O)=O)c1ccc(Br)cc1	101
134	O=C(NCc1ccccc1)c1cc(C(=O)C2CCCCC2)c[nH]1	91
135	CCc1ccc(CNC(=O)C2CCN(c3nc4ccccc4o3)CC2)cc1	94
136	O=C(O)c1ccccc1Sc1ccccc1S(=O)(=O)NC1CCCCC1	103
137	C/C(=N\N1C(=O)CC(=O)NC1=S)c1ccc(Cl)cc1	99
138	Cc1cc2nnc(-c3cccc4c3OCO4)n2c2ccccc12	95
139	Cc1cc(NS(=O)(=O)c2ccc(N)cc2)no1	97
140	COc1ccc(C(=O)Nc2ccc(Oc3ncnc4cc(Cl)ccc34)nc2)cc1	105
141	CC1CC(C)CN(C(=O)CC2Oc3ccccc3NC2=O)C1 (stereo unspecified)	81
142	CC(O)/C=C/c1cccc[n+]1C (stereo unspecified)	103
143	O=c1ccc(C2CCN(S(=O)(=O)c3ccc(F)cc3)CC2)nn1-c1ccccc1	105
144	CCS(=O)(=O)C1=NSC2=NC(=O)/C(=C\c3ccc(OCc4ccc(C)cc4)c(OC)c3)C(=N)N21	96
145	CC1CCN(C(=O)CSC2=NCCS2)CC1	98
